Screening results from PubChem.
FGF22 binding = shifts melting point of recombinant human FGF22. 340,000 compounds, 1.5% hits. Q9HCT0. AID 651658. recombinant FGF22 thermal shift, SYPRO orange fluorescence; percent of sucrose octasulfate shift, DMSO zero. calls only at 9.99 µM;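 active = melting point raised past a set limit in the mean and every replicate; three in four hits are not shown here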
Target sequence (Q9HCT0 whole entry, looked up): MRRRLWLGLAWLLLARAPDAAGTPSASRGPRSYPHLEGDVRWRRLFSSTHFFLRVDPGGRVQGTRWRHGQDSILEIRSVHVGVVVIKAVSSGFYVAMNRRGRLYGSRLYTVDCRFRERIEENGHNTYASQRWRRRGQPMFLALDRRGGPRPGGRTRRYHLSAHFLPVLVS
Ecoli rRNA inh = inhibits bacterial ribosomal RNA function over humanized ribosomes; E. coli WT GFP vs humanized-ribosome RFP mutants, fluorescence, 24 h; stronger effect = lower value; DMSO median 0, no signal -100; GFP signal change (wild-type ribosome), % (concentration not given with the values); 350,000 compounds, 1.6% hits; AID 720706;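 active = significant combined selectivity score with lowered wild-type GFP, culture density cut under 30%, mutant RFP and density less affected; inactive = any of these conditions unmet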; note: one replicate is shown; some compounds called inactive have numbers as strong as hits
AF4-AF9 inh = blocks AF4 peptide binding to human AF9 | P42568 | AlphaScreen, biotin-AF4 peptide binding to FLAG-AF9 | inhibition, % at 10 µM | 350,000 compounds, 0.47% hits | AID 651704;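 active = every replicate reaching a set inhibition limit, whatever the replicate mean, cut at about 25% in these data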;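 note: 0% = plate neutral control median and 100% = total signal loss; the record names both 10 and 1 µM as test concentration; the first replicate is given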
Target sequence (P42568 whole entry, looked up): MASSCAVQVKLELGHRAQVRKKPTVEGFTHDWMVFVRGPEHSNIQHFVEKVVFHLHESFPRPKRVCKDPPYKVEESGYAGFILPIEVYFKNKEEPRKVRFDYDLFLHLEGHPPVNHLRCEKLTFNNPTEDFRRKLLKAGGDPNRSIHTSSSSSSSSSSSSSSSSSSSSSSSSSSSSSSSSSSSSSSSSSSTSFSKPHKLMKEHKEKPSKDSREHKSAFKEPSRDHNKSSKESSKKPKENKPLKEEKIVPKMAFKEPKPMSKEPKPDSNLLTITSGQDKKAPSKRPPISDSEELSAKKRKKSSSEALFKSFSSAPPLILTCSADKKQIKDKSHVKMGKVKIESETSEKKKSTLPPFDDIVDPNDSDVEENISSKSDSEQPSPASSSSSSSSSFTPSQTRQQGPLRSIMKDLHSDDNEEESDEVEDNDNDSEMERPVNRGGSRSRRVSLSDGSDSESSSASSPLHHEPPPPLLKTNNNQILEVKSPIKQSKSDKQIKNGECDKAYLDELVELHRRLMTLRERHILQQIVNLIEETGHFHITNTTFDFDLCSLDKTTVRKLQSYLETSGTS
Ecoli rRNA inh OD600 = second read-out of Ecoli rRNA inh, no call of its own (marks repeat the call); OD600 change, %; measured here: OD600 growth;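 optical density of the mix in the first replicate; 0 = DMSO median and -100 = no signal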
Ecoli rRNA inh RFP = also measured in Ecoli rRNA inh; calls as there; RFP signal change, %; measured here: RFP humanized mutant strains;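 first replicate; 0 = DMSO median and -100 = no signal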
An asterisk follows results filed as active; i = inactive; & = joins results of further samples.

SMILES	FGF22 binding	Ecoli rRNA inh	Ecoli rRNA inh OD600	Ecoli rRNA inh RFP	AF4-AF9 inh
Cc1nnc(SC(C)C(=O)c2c[nH]c3ccccc23)n1C1CC1 (stereo not given)	i	-8.4	-5.0	3.9	3.6
CC(C)C#Cc1ccc2c(c1)O[C@@H](CN(C)S(=O)(=O)c1cn(C)cn1)[C@@H](C)CN([C@H](C)CO)S2(=O)=O	i	-5.9&-3.6	-4.8&-0.1	0.1&-2.6	2.5&1.1&0.5
CCc1ccc(C(O)c2ncc(-c3ccc(C)cc3)[nH]2)cc1 (stereo not given)	i	-12.5	-25.2	-2.2	2.1
C[C@H]1CN([C@@H](C)CO)C(=O)Cc2cc(NC(=O)CCCCCC(=O)Nc3ccccc3N)ccc2O[C@H]1CN(C)Cc1ccncc1	i	0.6	1.4	3.5	-4.8
O=C(C[C@@H]1C[C@H]2c3cc(NC(=O)Nc4ccccc4)ccc3O[C@H]2[C@@H](CO)O1)NCc1ccccc1	i	-1.9	-9.2	3.4	2.2
COc1ccc(/C=C2\C(=O)NC(=O)c3ccccc32)cc1OC	i	14.1	6.4	-0.7	0.0
CO[C@H]1CN(C)C(=O)c2ccc(NC(=O)Cc3ccccc3)cc2OC[C@@H](C)N(CC2CC2)C[C@@H]1C	i	1.6	-1.0	1.2	0.1
COc1cc2ccccc2cc1C(=O)N/N=C/c1cccs1	i	1.0	-5.4	0.1	4.8
COc1ccccc1NC(=O)N1C[C@H]2[C@@H](c3ccccc31)[C@H](CO)N2C(=O)c1ccccc1	i	-1.5	-0.5	-1.9	1.0
CCCN1[C@@H]2Cn3c(ccc(-c4ccccc4F)c3=O)[C@H]1[C@@H](C(=O)NCC)[C@@H]2CO	i	5.1	6.3	-0.5	-0.7
Cc1noc(C)c1NC(=O)Nc1ccc2c(c1)C(=O)N([C@H](C)CO)C[C@@H](C)[C@@H](CN(C)Cc1ccc3c(c1)OCO3)OCCCC[C@H](C)O2	i	0.3	-2.0	-0.9	1.8
CCNC(=O)C[C@@H]1CC[C@H]2[C@H](COc3ccc(NC(=O)Nc4ccccc4OC)cc3C(=O)N2C)O1	i	-5.1	-12.0	0.6	0.1
Cn1cnc(S(=O)(=O)N2CC[C@@H]3[C@H](CO)Nc4ccc(-c5cccc(F)c5)cc4[C@@H]32)c1	i	-8.1	-14.2	1.2	-1.4
O=C(Cc1ccccn1)NCC[C@H]1CC[C@H](NC(=O)Nc2ccc(C(F)(F)F)cc2)[C@@H](CO)O1	i	-5.6	-16.8	6.5	3.5
COCC(=O)N1C[C@H]2[C@@H](c3ccccc31)[C@@H](CO)N2C(=O)NC(C)C	i	4.7	7.1	-1.2	-1.4
OC[C@@H]1[C@@H]2c3ccccc3NC[C@@H]2N1CC1CCCCC1	i	-1.1	10.5	-1.8	3.5
O=C(C[C@@H]1CC[C@@H]2[C@H](COC[C@H](O)CN2Cc2cc(F)ccc2F)O1)N[C@@H]1CCN(Cc2ccccc2)C1	i	-5.1	-8.4	-0.1	5.1
COc1ccc(-c2cnc3c(c2)C(=O)N([C@H](C)CO)C[C@H](C)[C@@H](CN(C)C(=O)CN(C)C)O3)cc1	i	3.9	14.4	-3.1	-2.8
O=C(c1ccncc1)N1C[C@@H]2[C@H](c3ccccc31)[C@@H](CO)N2C(=O)Nc1ccccc1Cl	i	-0.8	4.9	-2.7	0.1
O=C(O)/C(=C\c1ccc(-c2ccc(F)cc2)o1)c1ccccc1	i	-18.5	-14.2	4.7	3.4
C[C@@H]1CN([C@H](C)CO)C(=O)c2cc(NC(=O)Nc3ccc4c(c3)OCO4)ccc2O[C@H]1CN(C)S(=O)(=O)c1ccc(F)cc1	i	-0.2	-6.7	-2.6	9.1
CCc1ccc([C@@H]2C[C@H]3[C@@H](CN2S(=O)(=O)c2ccc(C)cc2)C(=O)C[C@@H](c2ccccc2)N3S(=O)(=O)c2ccc(C)cc2)cc1	i	16.6	11.3	-0.2	-6.8
C[C@@H]1CN([C@@H](C)CO)C(=O)c2ccccc2-c2ccccc2CO[C@@H]1CN(C)S(=O)(=O)c1ccc(F)cc1	i	1.9	-5.8	5.7	-0.8
CO[C@@H]1CN(C)C(=O)c2ccc(NC(=O)Nc3ccccc3)cc2OC[C@@H](C)N(C(C)=O)C[C@@H]1C	i	1.8	10.5	-1.5	4.6
Cc1ccc(S(=O)(=O)NCc2ccccc2)cc1C(=O)NC(C)c1ccc(S(N)(=O)=O)cc1 (stereo not given)	i	0.9	3.9	-0.5	0.8

A different layout for 13 compounds above.
Results follow in this order: FGF22 binding, Ecoli rRNA inh, Ecoli rRNA inh OD600, Ecoli rRNA inh RFP, AF4-AF9 inh
Cn1cnc(S(=O)(=O)N2CC[C@@H]3[C@H](CO)Nc4ccc(-c5cccc(F)c5)cc4[C@@H]32)c1
  i, -8.1, -14.2, 1.2, -1.4
O=C(Cc1ccccn1)NCC[C@H]1CC[C@H](NC(=O)Nc2ccc(C(F)(F)F)cc2)[C@@H](CO)O1
  i, -5.6, -16.8, 6.5, 3.5
COCC(=O)N1C[C@H]2[C@@H](c3ccccc31)[C@@H](CO)N2C(=O)NC(C)C
  i, 4.7, 7.1, -1.2, -1.4
OC[C@@H]1[C@@H]2c3ccccc3NC[C@@H]2N1CC1CCCCC1
  i, -1.1, 10.5, -1.8, 3.5
O=C(C[C@@H]1CC[C@@H]2[C@H](COC[C@H](O)CN2Cc2cc(F)ccc2F)O1)N[C@@H]1CCN(Cc2ccccc2)C1
  i, -5.1, -8.4, -0.1, 5.1
COc1ccc(-c2cnc3c(c2)C(=O)N([C@H](C)CO)C[C@H](C)[C@@H](CN(C)C(=O)CN(C)C)O3)cc1
  i, 3.9, 14.4, -3.1, -2.8
O=C(c1ccncc1)N1C[C@@H]2[C@H](c3ccccc31)[C@@H](CO)N2C(=O)Nc1ccccc1Cl
  i, -0.8, 4.9, -2.7, 0.1
O=C(O)/C(=C\c1ccc(-c2ccc(F)cc2)o1)c1ccccc1
  i, -18.5, -14.2, 4.7, 3.4
C[C@@H]1CN([C@H](C)CO)C(=O)c2cc(NC(=O)Nc3ccc4c(c3)OCO4)ccc2O[C@H]1CN(C)S(=O)(=O)c1ccc(F)cc1
  i, -0.2, -6.7, -2.6, 9.1
CCc1ccc([C@@H]2C[C@H]3[C@@H](CN2S(=O)(=O)c2ccc(C)cc2)C(=O)C[C@@H](c2ccccc2)N3S(=O)(=O)c2ccc(C)cc2)cc1
  i, 16.6, 11.3, -0.2, -6.8
C[C@@H]1CN([C@@H](C)CO)C(=O)c2ccccc2-c2ccccc2CO[C@@H]1CN(C)S(=O)(=O)c1ccc(F)cc1
  i, 1.9, -5.8, 5.7, -0.8
CO[C@@H]1CN(C)C(=O)c2ccc(NC(=O)Nc3ccccc3)cc2OC[C@@H](C)N(C(C)=O)C[C@@H]1C
  i, 1.8, 10.5, -1.5, 4.6
Cc1ccc(S(=O)(=O)NCc2ccccc2)cc1C(=O)NC(C)c1ccc(S(N)(=O)=O)cc1 (stereo not given)
  i, 0.9, 3.9, -0.5, 0.8

Going on with the list.
SMILES	FGF22 binding	Ecoli rRNA inh	Ecoli rRNA inh OD600	Ecoli rRNA inh RFP	AF4-AF9 inh
O=C(C[C@H]1C=C[C@@H](NC(=O)CN2CCOCC2)[C@H](CO)O1)NC1CCCCC1	i	0.9	2.9	-0.2	-4.4
C[C@@H]1CN([C@@H](C)CO)C(=O)c2cccc(NC(=O)Nc3ccc4c(c3)OCO4)c2O[C@H]1CN(C)Cc1ccccc1	i	-2.5	-5.4	2.0	7.2
CCCNC(=O)c1cc(C2CCCCN2C(=O)c2ccccc2)on1 (stereo not given)	i	8.9	13.8	-5.2	-1.3
C[C@@H]1CN([C@H](C)CO)C(=O)c2cc(NC(=O)c3ccccc3)ccc2O[C@@H](C)CCCCO[C@H]1CN(C)C(=O)c1ccccc1	i	-6.0	-1.5	0.4	2.2
CCCCn1nnnc1C(c1cc2ccccc2o1)N(Cc1ccccc1)Cc1ccccc1 (stereo not given)	i	33.2	31.6	3.1	0.0
Cc1cccc(S(=O)(=O)N(C)C[C@@H]2OCc3cnnn3CCCC(=O)N([C@H](C)CO)C[C@H]2C)c1	i	-3.0&-1.9	0.4&0.4	-5.0&-0.2	-1.6&0.1
CC(C)NC(=O)Nc1ccc2c(c1)C(=O)N([C@@H](C)CO)C[C@@H](C)[C@@H](CN(C)S(=O)(=O)c1cn(C)cn1)O2	i	2.3	8.5	-0.2	-1.5
CC(C)C[C@@H](CN)NC(=O)c1nc[nH]c1C(=O)N[C@@H](C)C(=O)CNC[C@H](CC(C)C)NC(=O)c1nc[nH]c1C(=O)N[C@@H](Cc1ccccc1)C(=O)O	i	2.6	2.8	2.4	3.6
C[C@H]1CCCCO[C@H](CN(C)S(=O)(=O)c2ccccc2)[C@@H](C)CN([C@@H](C)CO)C(=O)c2cc(NS(=O)(=O)c3cccs3)ccc2O1	i	-0.9	-4.3	-0.7	-0.1
CNC[C@@H]1Oc2ccc(NC(=O)Nc3ccccc3)cc2C(=O)N([C@H](C)CO)C[C@H]1C	i	3.2	7.3	-2.7	-0.7
O=C(C[C@H]1CC[C@H]2[C@@H](COC[C@@H](O)CN2Cc2ccc(Oc3ccccc3)cc2)O1)N1CCc2ccccc2C1	i	-6.1	-24.9	32.7	1.5
C[C@@H]1CN([C@@H](C)CO)C(=O)c2cccc(NC(=O)C3CCOCC3)c2O[C@H]1CN(C)C(=O)Nc1ccccc1	i	0.4	8.5	-2.6	-2.6
Cc1ccc(S(=O)(=O)Nc2ccc3c(c2)CC(=O)N([C@@H](C)CO)C[C@H](C)[C@H](CN(C)Cc2ccc(C(=O)Nc4ccccc4N)cc2)O3)cc1	i	0.0	0.8	2.7	1.9
COc1ccccc1C(=O)Nc1ccc2c(c1)C(=O)N(C)C[C@H](OC)[C@H](C)CN(C(C)=O)[C@@H](C)CO2	i	2.0	-3.8	0.5	1.8
C[C@@H]1CN([C@H](C)CO)S(=O)(=O)c2ccc(C#Cc3ccncc3)cc2O[C@H]1CN(C)S(=O)(=O)c1ccc(F)cc1	i	-2.5	-5.3	15.2	0.9
C[C@@H]1CN([C@@H](C)CO)C(=O)c2cc(NS(C)(=O)=O)ccc2O[C@H]1CN(C)C(=O)Nc1ccc2c(c1)OCO2	i	1.0	4.1	-0.7	-5.4
O=C(C[n+]1cccc(C(=O)N/N=C/c2cccc([N+](=O)[O-])c2)c1)c1ccccc1	i	0.0	4.6	-2.2	3.9
CO[C@@H]1CN(C)C(=O)c2ccc(NC(=O)C3CCOCC3)cc2OC[C@@H](C)N(CC2CC2)C[C@@H]1C	i	3.4	11.8	0.0	-11.3
C[C@@H]1CN([C@H](C)CO)C(=O)c2cccc(NC(=O)c3ccc(-c4nccs4)cc3)c2O[C@@H]1CN(C)C(=O)Nc1ccc(F)cc1	i	-7.9	-7.7	0.5	-6.8
Cc1noc(C)c1NC(=O)Nc1ccc2c(c1)C(=O)N([C@H](C)CO)C[C@@H](C)[C@@H](CN(C)C(=O)Nc1ccccc1)OCCCC[C@@H](C)O2	i	-0.7	5.0	0.4	-0.8
Cn1cnc(S(=O)(=O)N2C[C@@H](O)COC[C@@H]3O[C@H](CC(=O)NC4CCC4)CC[C@H]32)c1	i	2.5&13.3	9.2&2.9	-2.7&6.5	-0.5
COc1ccc([C@H]2C[C@H](O)[C@@H](n3cc(C4CC4)nn3)CN2C(=O)C2CCCCC2)cc1	i	4.1	3.5	0.9	2.5
COc1cccc(C(=O)Nc2ccc3c(c2)C(=O)N(C)C[C@H](OC)[C@H](C)CN(C)[C@@H](C)CO3)c1	i	-0.2	0.7	-1.3	-1.9
CC(C)NC(=O)Nc1cccc2c1O[C@@H](CN(C)C(=O)Nc1ccc(C(F)(F)F)cc1)[C@@H](C)CN([C@@H](C)CO)C2=O	i	-37.0	-53.3	1.8	0.4
C/C=C/c1cnc2c(c1)C(=O)N([C@@H](C)CO)C[C@@H](C)[C@@H](CN(C)Cc1ccncc1)O2	i	6.4	11.2	-2.7	-5.7
Cc1noc(C)c1S(=O)(=O)N(C)C[C@@H]1Oc2ccc(NC(=O)CCCCCC(=O)Nc3ccccc3N)cc2CC(=O)N([C@H](C)CO)C[C@@H]1C	i	1.3	-6.9	-2.8	-2.4
Cc1noc(C)c1NC(=O)Nc1ccc2c(c1)CC(=O)N([C@H](C)CO)C[C@@H](C)[C@H](CN(C)C(=O)Nc1ccccc1)O2	i	0.8	2.0	-0.3	-3.3

The list is partial (hit frequency here may not be typical).
